Assay outcomes (PubChem)
AF4-AF9 inh: inhibitors of AF4 peptide binding to AF9, primary screen, biochemical, AlphaScreen, biotin-AF4 peptide, FLAG-AF9, single point; Protein AF-9 (Homo sapiens), P42568; inhibition, % at 10 µM; 0.47% of 350,000 active;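 active = every replicate reaching a set inhibition limit, whatever the replicate mean, cut at about 25% in these data; inconclusive = mean inhibition reaches that limit but some replicates miss it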;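 note: 0% = plate neutral control median and 100% = total signal loss; the record names both 10 and 1 µM as test concentration; the first replicate is given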
Target sequence (P42568 whole entry, looked up): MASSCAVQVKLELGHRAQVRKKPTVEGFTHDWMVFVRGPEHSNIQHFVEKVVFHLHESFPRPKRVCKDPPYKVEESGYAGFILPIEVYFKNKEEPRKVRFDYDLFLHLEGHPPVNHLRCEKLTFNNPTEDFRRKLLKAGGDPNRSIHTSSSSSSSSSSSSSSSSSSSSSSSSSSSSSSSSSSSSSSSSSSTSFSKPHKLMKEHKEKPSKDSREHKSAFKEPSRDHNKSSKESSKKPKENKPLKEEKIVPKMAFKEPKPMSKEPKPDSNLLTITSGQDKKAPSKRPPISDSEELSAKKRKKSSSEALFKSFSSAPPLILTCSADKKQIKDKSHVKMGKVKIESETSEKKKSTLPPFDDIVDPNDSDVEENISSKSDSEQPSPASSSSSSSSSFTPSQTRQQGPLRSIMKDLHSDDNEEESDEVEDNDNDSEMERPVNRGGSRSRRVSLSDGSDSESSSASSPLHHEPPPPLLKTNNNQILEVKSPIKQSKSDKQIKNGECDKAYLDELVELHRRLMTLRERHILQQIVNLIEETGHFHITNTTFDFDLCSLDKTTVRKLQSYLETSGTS
Beta apoptosis: inhibitors of cytokine-induced beta cell apoptosis, primary screen, luminescence; INS-1E cytokine-induced death, ATP luminescence, 48 h; percent of positive-control rescue, neutral wells zero; protection from apoptosis, % (concentration not given with the values); 0.8% of 300,000 active; AID 435005, 2010;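 active = all replicates at 75% or more, or half of them and the mean; inconclusive = half reach 75% but not the mean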;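 note: 0% = cytokine-treated negative control wells and 100% = positive control rescue; higher means more ATP so stronger rescue from cytokine killing; wells of about 40 µL received 100 nL stock; the first replicate is given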
A1 inh: caspase 3/7 activation in MEF A1-2A-BIM cells, primary screen, A1 inhibitor project, cell-based, luminescence, HTS; Caspase-Glo 3/7 luminescence, 3 h; percent of clofoctol response, vehicle zero; caspase activation, % (concentration not given with the values); 0.066% of 330,000 active;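 active = over half of replicate activation scores above 10%, or exactly half above 10 with the replicate mean above 10; inconclusive = replicate mean below 10 yet half the replicates above 10; inactive = over half of replicates below 10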;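 note: wells of about 30 µL received 50 nL stock; many hits fall short of the cut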
RanGTP-Imp inh: inhibitors of RanGTP-importin-beta interaction, primary screen, biochemical, FRET, CFP-Ran, YFP-importin-beta, homogeneous; Ran GTPase (GTP-bound) - importin-beta complex; cell-free CFP-Ran/YFP-importin-beta FRET ratio; inhibition, % (test concentration not listed); 1.1% of 300,000 active;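 active = most replicates above 15%; inconclusive = exactly half above 15%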;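 note: 0% = DMSO wells and 100% = Ran loaded with GDP instead of GTP; wells of about 40 µL received 100 nL stock; the first replicate is given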
T cruzi inh: inhibitors of intracellular T. cruzi growth, primary screen, luminescence, NIH3T3 host cells | T. cruzi beta-gal in NIH3T3, 90 h | inhibition, % (test concentration not listed) | 1.4% of 300,000 active | AID 1885, 2009;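 active = mean inhibition across valid replicates above about 55%, limit read from the data; inconclusive = mean below that limit but half or more replicates reach it; inactive = mean below it, under half of replicates reach it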;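 note: signal also drops with host cell toxicity which is not excluded here; 0% = plate median of DMSO wells and 100% = zero luminescence signal; higher percent means less beta-gal luminescence so fewer parasites; stock transfer was 50 nL into about 50 µL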
LANA-H2A inh: blockers of LANA interaction with H2A/H2B – biochemical, FP readout, HTS, primary screen. 0.6% of 320,000 active. inhibition, % (concentration not given with the values). cell-free LANA-H2A/H2B peptide, fluorescence polarization. Protein LANA1 (Human herpesvirus 8 type P (isolate GK18)), Q9QR71; in the data active = inhibition mostly above about 10%, no sharp cut-off; inactive = mostly below about 6.7%;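 note: stock transfer was 7.5 nL into about 10 µL; 0% = median of vehicle wells and 100% = median of positive control wells; one replicate is shown; the record names a cut of 25% in any replicate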
Calb FLC: C. albicans growth inhibition with fluconazole, primary screen, CaCi-2 strain, Alamar Blue fluorescence | C. albicans CaCi-2 (fluconazole-resistant clinical isolate) + fluconazole, 48 h | 0.57% of 300,000 active | growth inhibition, % (concentration not given with the values);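 active = most replicates above 75%; inconclusive = exactly half above 75%; inactive = most below 75%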;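 note: all wells also contain fluconazole at 8 µg/ml as a sub-toxic cotreatment; 0% = median of DMSO wells and 100% = median of geldanamycin control wells; wells of about 8 µL received 7.5 nL stock; the first replicate is given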
Vif TR-FRET: inhibitors of Vif binding to APOBEC3G peptide, primary screen, biochemical, TR-FRET, GST-Vif 1-94, biotin-A3G peptide, dose response retest (AID 1117319); 0.57% of 260,000 active; Virion infectivity factor (Human immunodeficiency virus type 1 group M subtype B (isolate …; inhibition, %; hits with a dose series show IC50 in µM; TR-FRET GST-Vif / biotin-A3G peptide binding; higher % means a stronger effect; test concentration not given here; strong numbers were not always called active;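 active = above the screen mean plus three standard deviations and confirmed in dose response; inconclusive = results disagree or hit not tested in dose response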;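 note: Vif residues 1-94 fused to GST binding biotinylated APOBEC3G peptide 110-148; 0% = full assay without inhibitor and 100% = GST in place of GST-Vif; retest series ran down from 100 µM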
Starred values were filed as active, the others as inactive; ? = inconclusive; / = not tested or not shown; & = joins results of further samples.

SMILES	AF4-AF9 inh	Beta apoptosis	A1 inh	RanGTP-Imp inh	T cruzi inh	LANA-H2A inh	Calb FLC	Vif TR-FRET
O=C(Nc1ccc(Cl)c(Cl)c1)OCCNC(=O)c1ccncc1	0.0	-5	0.0	4.7	17	2.5	1	/
Cc1nc2ccc(NS(=O)(=O)c3ccc4c(c3)OCCO4)cc2s1	/	123*	-0.3	-1.6	-22	-8.2	-3	3%
CCOc1ccc(CC(=O)OCc2cc(=O)n3cc(Br)ccc3n2)cc1	-1.7	-9	0.2	/	/	-3.4	-8	8%
COc1cc(/C=C2\SC(N)=NC2=O)ccc1O	-0.7	/	1.4	-5.7	-23	-3.5	14	/
Cc1cccn2c(=O)c3cc(C#N)c(=NC(=O)c4ccncc4)n(CCCOC(C)C)c3nc12	/	11	0.1	140*	21	8.9*	2	2%
COc1ccc(CNC(=O)CSc2nc3c(oc4ccccc43)c(=O)n2CC2CCCO2)cc1 (stereo not given)	-19	21	0.5	-0.1	10	2.9	7	1%
COCCNC(=O)Cn1cc(C(=S)N2CCCCC2)c2ccccc21	-2.3	-5	3.0	1.3	-4	1.2	-5	/
C=C[C@@H]1c2cccc(C)c2N(S(=O)(=O)c2ccc(C)cc2)[C@H](c2ccccc2)C1(C#N)S(=O)(=O)c1ccccc1 (stereo not given in full)	0.8	4	0.0	/	/	-0.1	/	/
Cc1ccc(S(=O)(=O)n2c(C)nc3cc(C)ccc32)cc1	3.2	1	-0.1	2.6	4	-0.9	-15	/
COc1cc2c3c(c1)-c1c(sn(-c4cc(OC)ccc4OC)c1=S)C(C)(C)N3C(=O)C2=O	/	2	0.3	2.1	-3	5.2	4	14%
CCC(C)NC(=O)CCSc1ccc(C)cc1 (stereo not given)	/	-9	1.5	-2.0	-2	/	-2	/
COc1ccc(CCN2C(=O)NC(NS(=O)(=O)c3ccc(Cl)cc3)(C(F)(F)F)C2=O)cc1OC (stereo not given)	-3.3	-2	-0.3	0.9	-12	1.9	21	-4%
O=C(c1ccccc1)N1CCN=C1SCc1ccc([N+](=O)[O-])cc1	/	/	-0.4	1.1	4	0.6	5	/
O=C(O)c1ccc(NC(=O)C2CC=CCC2C(=O)O)cc1 (stereo not given)	/	/	-1.2	3.1	-21	2.1	-2	8%
COC(=O)c1scc(C)c1NS(=O)(=O)c1ccc(NC(C)=O)cc1	/	-2	0.0	-2.8	/	-2.1	-1	/
CCOC(=O)C1CCCN(Cc2ccc(OCc3ccccc3)c(OC)c2)C1 (stereo not given)	4.4	/	0.7	4.1	63*	-4.0	-4	/
C=C(C)Cn1c(N2CCCC2)nc2c1c(=O)[nH]c(=O)n2C	-0.7	5	1.4	-1.1	-9	7.5	5	?
O=C(COC(=O)c1ccccc1O)NCCCc1ccccc1	0.2	0	0.1	-5.0	-4	5.8	-22	-8%
O=C(Nc1cccc(-c2ccc(N3CCCCC3)nn2)c1)c1ccco1	0.7	14	0.1	-0.8	1	-2.0	29	-3%
CC(=O)Nc1ccc(C(=O)NCC(c2ccco2)N(C)C)cc1 (stereo not given)	-1.8	-2	0.4	1.6	-6	-2.0	4	4%
CC(=O)Nc1cc(C(=O)N2CCCC2)ccc1S(=O)(=O)c1ccc(C)cc1	/	-5	0.1	-3.5	1	-0.4	-6	-2%
C=C(C)C1CC=C(C)/C(=N/NC(=O)c2ccc(NC(=O)CCC)cc2)C1 (stereo not given)	/	-7	0.9	5.4	11	1.2	8	7%
Cc1cccc(NC(=O)c2cc(-c3cc(C)c(C)cc3O)n[nH]2)c1	-11	/	-6.3	-0.2	-11	1.4	-10	-2%
CSc1nc(C)c(C(=O)C[n+]2ccccc2C)cc1C#N	1.4	-2	0.0	1.2	-5	-5.0	8	7%

Complete entries from above. Order of screens: AF4-AF9 inh, Beta apoptosis, A1 inh, RanGTP-Imp inh, T cruzi inh, LANA-H2A inh, Calb FLC, Vif TR-FRET
O=C(O)c1ccc(NC(=O)C2CC=CCC2C(=O)O)cc1 (stereo not given) in the list: /, /, -1.2, 3.1, -21, 2.1, -2, 8%
CC(=O)Nc1cc(C(=O)N2CCCC2)ccc1S(=O)(=O)c1ccc(C)cc1 in the list: /, -5, 0.1, -3.5, 1, -0.4, -6, -2%
CCOc1ccc(CC(=O)OCc2cc(=O)n3cc(Br)ccc3n2)cc1 in the list: -1.7, -9, 0.2, /, /, -3.4, -8, 8%

Next compounds
SMILES	AF4-AF9 inh	Beta apoptosis	A1 inh	RanGTP-Imp inh	T cruzi inh	LANA-H2A inh	Calb FLC	Vif TR-FRET
CCOC(=O)c1sc(NC(=S)NC(=O)C23CC4CC(CC(C4)C2)C3)cc1C	4.2	1	0.6	1.3	49	-6.5	4	9%
CC1CCCCC1NC(=O)c1ccc(S(=O)(=O)NCc2ccco2)cc1 (stereo not given)	/	-1	-0.1	-7.2	-19	0.6	3	24%
Cc1c(Cl)cccc1NC(=O)c1cc(S(=O)(=O)N2CCOCC2)cn1C	-5.3	-3	0.0	3.3	2	2.6	-1	/
C=CCn1c(P(C)(=O)O)nc2ccccc21	-3.8	-7&1	-0.1&0.1	1.6&-2.9	-12&-21	-4.9&2.8	1&-17	?
CC(C)CN1C2CCCC1CC(NC(=S)NCc1ccco1)C2 (stereo not given)	1.4	-2	-0.3	-6.2	17	2.3	-17	13%
CC(C)CCC(CCNCc1ccccn1)c1ccc2c(c1)OCO2 (stereo not given)	6.9	13	0.5	2.8	10	-7.7	-7	4%
CCCc1nnc(NC(=O)CCC(=O)NCc2ccccc2OC)s1	/	-2	0.1	0.0	-5	2.2	0	-1%
CC(NC(=O)Cc1ccc([N+](=O)[O-])cc1)c1ccc2c(c1)OCO2 (stereo not given)	-0.5	2	0.2	3.8	6	1.4	-2	6%
O=C(NCCN1CCN(C(=O)c2ccccc2Cl)CC1)C(=O)NCc1ccccc1	-2.6	0	0.3	?	-8	-6.2	-12	1%
Cc1ccc2c(Cl)c(C(=O)NC3CC3)sc2c1	-1.6	-5	1.6	/	/	-0.7	-7	/
O=C(CSc1n[nH]c(-c2cccnc2)n1)Nc1ccccc1[N+](=O)[O-]	2.6	-6	0.9	?	10	1.6	6	/
CN(CC(=O)Nc1ccc(F)cc1)c1ccc(S(=O)(=O)N2CCCCC2)cc1[N+](=O)[O-]	-16	0	0.3	-2.5	-1	-6.9	-5	9%
O=S(=O)(Nc1nc2ccccc2nc1Nc1ccc2c(c1)OCO2)c1ccccc1	/	/	-0.3	-0.5	-27	-1.6	-17	24%
CCc1ccc(CN(C)Cc2nc(-c3cccc(Cl)c3)no2)nc1	3.2	-2	0.1	-4.6	-10	-3.1	-10	-5%
Cc1ccc2nc(NCCO)nc(-c3ccccc3)c2c1	/	4	0.0	29*	21	2.0	3	-7%
Cc1c(NC(=O)CCC2CCCCC2)cc(C(=O)N2CCOCC2)cc1[N+](=O)[O-]	0.0	3	0.5	3.2	1	-1.1	27	-8%
CC[n+]1c(/C=C/c2ccc(OC(C)=O)c(OC)c2)ccc2ccccc21	4.2	15	-0.4	3.2	8	1.1	-4	8%
O=C1C(=O)N(CC2CCCO2)C(c2ccco2)/C1=C(/O)c1ccc(F)cc1 (stereo not given)	-0.7	-6	0.2	-1.2	-16	2.2	4	11%
COC(=O)CCc1c(COC(C)=O)[nH]c(C(=O)OCc2ccccc2)c1C	-4.3	-6	0.2	4.3	6	1.1	-2	-6%
COc1ccccc1NC(=O)CSc1ccc(-c2ccc(-n3cccn3)cc2)nn1	-0.2	/	-0.3	-2.2	-1	7.0	-7	-11%
CC(C)N=C1SC(CC(=O)Nc2ccccc2)C(=O)N1C(C)C (stereo not given)	-1.0	-4	0.3	1.2	-2	3.9	-3	/
O=C(CCC1CCCN(C(=O)c2ccc3c(c2)OCO3)C1)NCc1ccc(F)c(F)c1 (stereo not given)	-1.8	-5	-1.2	5.0	0	5.9	-22	-3%
Cc1cccc(OCC(=O)N(Cc2cccs2)C2CCS(=O)(=O)C2)c1 (stereo not given)	/	5	0.1	?	6	-3.0	3	-2%
Cc1cccc(-c2nc(CS(=O)CC(=O)NCCc3ccccc3)c(C)o2)c1 (stereo not given)	0.1	2	-0.7	-2.9	-1	-0.3	-17	-10%

Looked up by structure from the list above:
SMILES	AF4-AF9 inh	Beta apoptosis	A1 inh	RanGTP-Imp inh	T cruzi inh	LANA-H2A inh	Calb FLC	Vif TR-FRET
CCc1ccc(CN(C)Cc2nc(-c3cccc(Cl)c3)no2)nc1	3.2	-2	0.1	-4.6	-10	-3.1	-10	-5%
O=S(=O)(Nc1nc2ccccc2nc1Nc1ccc2c(c1)OCO2)c1ccccc1	/	/	-0.3	-0.5	-27	-1.6	-17	24%

(further entries)
SMILES	AF4-AF9 inh	Beta apoptosis	A1 inh	RanGTP-Imp inh	T cruzi inh	LANA-H2A inh	Calb FLC	Vif TR-FRET
COc1ccc(C(=O)CSc2nnc(-c3ccoc3C)n2CC2CCCO2)cc1 (stereo not given)	/	-11	0.8	-4.7	5	-8.5	12	7%
[N-]=[N+]=NC[C@H](Cc1ccccc1)N1CC[C@@H](O)CCC1=O	-7.4	-1	-1.6	1.4	2	-0.7	-1	/
Nc1nnnn1CC(=O)OCc1cccc(Br)c1	/	4	-1.0	2.5	-4	0.7	9	-5%
CC(=O)c1cccc(NC(=O)N2CCCC2C(=O)Nc2cccc(C)c2C)c1 (stereo not given)	/	-2	0.1	/	/	-1.5	/	3%
Cc1ccc(C(=O)CSc2nnc(-c3ccc4[nH]c(C)c(C)c4c3)o2)cc1C	/	4	-0.8	-1.1	44	-5.3	-7	8%
O=S(Cc1ccc(Br)cc1)Cc1nnc(SCc2ccc(Br)cc2)n1-c1ccccc1 (stereo not given)	5.1	42	-0.3	0.6	47	2.4	57	?
CCOC(=O)Cc1ccc(NC(=O)c2ccc(C(C)(C)C)cc2)cc1	/	6	0.5	-3.0	21	2.7	10	10%
CCc1nn(CC(=O)NCCCN2CCCC2=O)c(=O)c2cc3sccc3n12	-3.6	1	-0.3	-2.7	-4	-1.3	5	13%
CC(=O)Nc1ccc(S(=O)(=O)N(C)CC(=O)OCC(=O)c2cc(C)n(-c3ccc4c(c3)OCO4)c2C)cc1	7.7	3	0.6	-1.2	-21	-2.7	0	/
O=C(Cc1cccs1)N(Cc1cccs1)C1(C(=O)NC2CCCC2)CCCCC1	/	4	0.5	-2.3	2	3.7	0	22%
CCOc1ccc(C(=O)NCCc2cnc[nH]2)cc1OCC	-1.1	-2	0.7	1.6	8	-2.7	-6	-2%
COc1ccc(C/C(N)=N/OC(=O)Cc2ccccc2)cc1	/	2	-0.1	3.8	1	3.3	-8	?
Cc1c(/C=N\NC(=O)c2ccc(F)cc2)cnn1C	/	-2	0.1	0.7	-21	-2.5	11	-8%
Cc1ccc(N2C(=O)C3N=NN(CC(=O)N4N=C(c5ccccc5)CC4c4ccccc4)C3C2=O)cc1 (stereo not given)	-5.7	-3	0.5	-2.1	2	-0.5	4	8%
